# Cruzain noTriton: cruzain (T. cruzi) inhibition without detergent; actives 2.3% (n = 200,000); purified cruzain, Z-FR-AMC fluorescence, no detergent; Potency, µM, inactives show max response, negative = inhibition, actives largely listed as inhibitors; P25779; AID 1476; active means well fitted curve in the direction sought with a large enough effect; inconclusive means small, poorly fitted or top-dose-only effect, or another doubt; inactive means no such curve, though single readings can be large; an effect the other way counts as inactive or inconclusive;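 further: plate controls were enzyme without inhibitor for no effect and buffer without enzyme for full effect; nearly all actives have a fitted effect of over 40% in size; top concentration of the series not given in the record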
# Target sequence (P25779 123-467 limits assumed): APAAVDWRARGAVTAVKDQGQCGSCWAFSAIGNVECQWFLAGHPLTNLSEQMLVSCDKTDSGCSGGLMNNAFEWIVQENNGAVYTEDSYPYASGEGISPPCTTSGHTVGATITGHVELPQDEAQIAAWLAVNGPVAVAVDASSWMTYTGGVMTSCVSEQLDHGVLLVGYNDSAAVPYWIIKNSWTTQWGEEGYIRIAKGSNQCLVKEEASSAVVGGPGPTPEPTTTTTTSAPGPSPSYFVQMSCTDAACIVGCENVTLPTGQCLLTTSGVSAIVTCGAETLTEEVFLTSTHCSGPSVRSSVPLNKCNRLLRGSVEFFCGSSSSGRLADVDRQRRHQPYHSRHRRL
#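 Detergent-free condition (0.00005% Triton X-100) in acetate buffer pH 5.5 with DTT. 1.5 nM enzyme and compound were pre-mixed 15 min, then 2 uM Z-FR-AMC substrate added; reaction progress from fluorescence change between first and third reads (60 s).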
# NS1 function inh: blocks influenza NS1 protein function; S. cerevisiae slowed by influenza A NS1, growth recovery by OD600; Potency, µM (top dose mostly 46.1 µM), for inactives: at the highest dose activity, positive = more growth; actives 0.4% (n = 270,000); AID 2326; further: actives are rising curves; nearly all actives have a fitted effect of over 50% in size
#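 Recovery from NS1-induced slow growth read by OD600 in budding yeast switched to galactose assay medium (pH 6.0, -URA) at 1:100 dilution. Compound 23 nl per well; the matching strain lacking NS1 serves as control.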
# StopGo reporter: FMDV 2A StopGo reporter, luciferase signal | human cells with a luciferase reporter of 2A StopGo recoding; control for the full effect not named in the record | Potency, µM (top dose mostly 57.9 µM), for the others: at the top dose signal change, negative = less light | actives 1.2% (n = 410,000) | AID 1159524; active = well fitted falling curve with a large enough effect; inconclusive = small, poorly fitted or top-dose-only effect; inactive = no such curve, though single readings can be large or run the other way; tested in HEK293T cells; further: on the % scale 0 is the no-effect control and ±100 the full control effect; nearly all actives have a fitted effect of over 45% in size; luciferase light after 4 h
# MARV entry inh: Marburg virus entry inhibition. Potency, µM (highest dose often 37.8 µM), for the others: at the highest dose activity change, negative = inhibition, most hits filed as inhibitors. actives 1.8% (n = 300,000). Marburg virus pseudotyped entry inhibition, cell reporter; control for the full effect not named in the record; about a third of the inactives were read at about 46 µM; active = well fitted inhibition curve with a large enough effect; inconclusive = small, poorly fitted or top-dose-only effect, or effect the other way; inactive = flat fitted curve, though single readings scatter; tested in HEK293 cells; about a fifth of its hits are not listed in these tables; further: on the % scale 0 is the no-effect control and ±100 the full control effect; luciferase read-out
# Cruzain inh Det: inhibitors of Trypanosoma cruzi cruzain with detergent | actives 0.43% (n = 200,000) | purified cruzain, Z-FR-AMC fluorescence, 0.01% Triton | Potency, µM, for the others: max response, negative = inhibition, usual class: inhibitors | AID 1478; active means well fitted curve in the direction sought with a large enough effect; inconclusive means small, poorly fitted or top-dose-only effect, or another doubt; inactive means no such curve, though single readings can be large; an effect the other way counts as inactive or inconclusive;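 further: plate controls were neutral wells for no effect and buffer without enzyme for full effect; nearly all actives have a fitted effect of over 40% in size; top concentration of the series not given in the record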
#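 Z-FR-AMC hydrolysis (2 uM substrate) by cruzain (1.5 nM) monitored kinetically at ex 360/em 450 nm after 15 min room-temperature compound exposure; 0.01% Triton X-100, pH 5.5, 5 mM DTT.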
# RE007 growth inh: less growth of the S. pombe RE007 Vpr strain; S. pombe RE007 Vpr strain, BacTiter-Glo ATP luminescence, 24 h; control for the full effect not named in the record; Potency, µM (highest dose often 92.2 µM), inactives show at the top dose activity change, negative = less growth; actives 0.21% (n = 360,000); AID 651644; active = well fitted falling curve with a large enough effect; inconclusive = small, poorly fitted or top-dose-only effect; inactive = no such curve, though single readings can be large or run the other way;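 further: on the % scale 0 is the no-effect control and ±100 the full control effect; nearly all actives have a fitted effect of over 50% in size; the assay follows cell death caused by Vpr and the record does not say whether a fall means rescue or toxicity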
#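 Fission yeast RE007 carrying one integrated HIV-1 vpr copy, seeded at OD 0.01 in PMG+AL medium with 23 nL pinned compound. Grown 24 h at 30 degrees; viability read by BacTiter-Glo luminescence after 5 min.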
# SARS PLpro yeast: blocks SARS-CoV papain-like protease in a yeast assay; S. cerevisiae expressing SARS-CoV PLpro, growth rescue; control for the full effect not named in the record; Potency, µM (top dose mostly 32.9 µM), for the others: at the top dose activity, positive = growth rescue; actives 0.19% (n = 330,000); further: 0% is about no effect; nearly all actives have a fitted effect of over 55% in size; growth read by luminescence after 48 h
# Lassa entry inh: Lassa virus entry inhibition; Potency, µM (doses to about 37.9 µM), without a hit: at the top dose activity change, negative = inhibition, actives largely listed as inhibitors; Lassa virus pseudotype entry inhibition, cell reporter; control for the full effect not named in the record; actives 1.2% (n = 300,000); active means well fitted inhibition curve with a large enough effect; inconclusive means small, poorly fitted or top-dose-only effect, or effect the other way; inactive means flat fitted curve, though single readings scatter; tested in HEK293 cells; further: on the % scale 0 is the no-effect control and ±100 the full control effect; nearly all actives have a fitted effect of over 50% in size; luciferase read-out
# * marks the source's active call; other numbers are inactive results; u = inconclusive; x = no result given; & = joins results of further samples; [ ] = another dose, or the depositor's remark. Unless noted, the call rests on the fitted dose curve; in most records, active means well fitted rising curve with a large enough effect; inconclusive means small, poorly fitted or top-dose-only effect; inactive means no such curve, though single readings can be large or run the other way. Potency means the concentration at half of the fitted maximal effect.
SMILES,Cruzain noTriton,NS1 function inh,StopGo reporter,MARV entry inh,Cruzain inh Det,RE007 growth inh,SARS PLpro yeast,Lassa entry inh
COc1ccc(CCN2Cc3c(cccc3[N+](=O)[O-])C2=O)cc1OC,x,0%,-20%,-6%[46.1 µM],x,-7%,0%,-30%[46.1 µM]
Cc1cccc(NC(=O)c2cc(NC(=O)C3CC=CCC3C(=O)O)ccc2N2CCOCC2)c1 (configuration not stated),15%,u,-3%,9%,7.4%,5%,-4%,0%
Cc1ccc(CN2CCC(CNC(=O)Nc3ccc(C)c(C)c3)C2)cc1 (configuration not stated),3%,x,u,u,2.4%,x,x,-27%[46.1 µM]
O=C(Cn1cnc2c(nnn2Cc2ccccc2F)c1=O)NCC1CCCO1 (configuration not stated),-15%,u,-25%,u,0.0%,-2%,u,0%
Cc1nc2ncnn2c(N2CCCC(C(=O)Nc3ccc4c(c3)CCC4)C2)c1C (configuration not stated),u,-4%,25µM*,u,-3.5%,0%,1%,u
CCOc1ccc(CCNC(=O)COC(=O)COc2ccc(C(=O)CC)cc2)cc1OCC,x,x,-6%,0%,x,-17%,-5%,-2%
Cc1ccc(C)c(NC(=O)C2=CCN(S(=O)(=O)c3ccc(F)cc3)CC2)c1,-1%,-7%,-11%,-12%,0.5%,-1%,10%,1%
O=C(Nc1ccc2oc(-c3ccccc3)nc2c1)C1CCCO1 (configuration not stated),-4%,-13%,0%,u,1.8%,-21%,-3%,u
CCOC(=O)N1CCN(C(=O)COc2ccc(Cl)cc2C)CC1,5%,-1%,-21%,-1%,4.1%,20%,-1%,3%
Cc1ccc(N2CC(C(=O)NCc3nnnn3-c3ccc(C)c(C)c3)CC2=O)cc1C (configuration not stated),u,x,-15%,x,3.0%,x,x,-25%[46.1 µM]
CCn1c(Cc2cccs2)nnc1SCC(=O)c1ccc(C)cc1,-6%,-13%,59%[activator],28%,-1.4%,6%,-12%,2%
CCN(Cc1ccccc1)C(=O)CSc1nc(C)cc(C)c1C#N,-11%,-61%,-25%,1%,-1.2%,2%,-18%,-19%
C=CCn1c(N)c(C(=O)Nc2cccc(C)c2)c2nc3ccccc3nc21,u,23%,2%,u,-5.9%,u,-28%,17%
COc1cc(C)c(C#N)c(OC)n1,0%,7%,-10%,-1%,3.0%,26%,-10%,1%
Cc1cc(OCC(=O)N2CCN(CCc3ccncc3)CC2)cc(C)c1Cl,-9%,x,-23%,-22%[46.1 µM],2.5%,x,x,5%[46.1 µM]
COc1ccccc1CNC(=S)NCc1ccc(F)cc1,x,-57%,30%,-6%[46.1 µM],x,-3%,12%,-21%[46.1 µM]
COc1cc(OC)cc(C(=O)NCCC(=O)NCCc2ccc(OC)c(OC)c2)c1,2%,5%,-15%,15%,-1.8%,0%,4%,-2%
Cc1ccc(C)c2[nH]c(=O)c(CCNC(=O)c3ccco3)cc12,x,x,-23%,-8%,x,-8%,1%,4%
O=C(COc1cc2oc(=O)c3c(c2cc1Cl)CCCC3)N1C[C@H]2C[C@@H](C1)c1cccc(=O)n1C2,x,-7%,-4%,x,x,-6%,-2%,x
Nc1nc(N)c2cc([N+](=O)[O-])ccc2n1,x,x,-12%,-2%,x,9%,x,4%
CCCCCCCCc1c(O)nc(-n2[nH]c(C)c(CCO)c2=O)[nH]c1=O,x,x,0%,3%[46.1 µM],x,1%,2%,13%[46.1 µM]
COc1ccc(C[C@H]2CN3C(=NC[C@@H]3Cc3ccc(O)cc3)N2CCNC(=O)c2ccc(C)c(Br)c2)cc1,x,3%,-29%,x,x,15%,0%,x
COc1ccc(S(N)(=O)=O)cc1C(=O)NNC(=O)C1COc2ccccc2O1 (configuration not stated),x,x,-4%,4%,x,2%,-7%,-15%
CCCc1nnc(NC(=O)Cn2c(=O)oc3ccccc32)s1,-8%,-15%,-7%,12%&0%,-0.2%,0%,-1%,-14%
CN(C)NC1CCS(=O)(=O)C1 (configuration not stated),-5%,9%,x,-2%,4.8%,3%,4%,7%

# (continued)
SMILES,Cruzain noTriton,NS1 function inh,StopGo reporter,MARV entry inh,Cruzain inh Det,RE007 growth inh,SARS PLpro yeast,Lassa entry inh
CC12/C(=N/O)C3C4CC5C3/C(=N/O)C1C5C42 (configuration not stated),-10%,2%,x,14%,2.7%,-6%,1%,17%
Cc1nn(CC(=O)Nc2ccc(N3CCOCC3)cc2)c(C)c1Br,x,-2%,10%,-6%,x,6%,x,2%
Cc1ccc(-n2cc(C(=O)O)c(=O)cc2C)c(C)c1,x,x,-5%,u,x,12%,4%,5%[46.1 µM]
Cc1ccc(C2=NN(CC(=O)NCCN(CC(C)C)CC(C)C)C(=O)CC2)cc1,17%,-5%,3%&-7%,u,1.4%,0%,2%,u
O=C(NCCCC1CCCC1)C1CCC(=O)N(Cc2ccccc2F)C1 (configuration not stated),x,x,1%,-14%,x,-21%,x,14%
CN(C)/C=N/c1nc(-c2ccc3c(c2)OCO3)cs1,x,4%,37%[activator],-8%[46.1 µM],x,-6%,-5%,u
O=C(Nc1cccc(C(F)(F)F)c1)Nc1ccon1,x,-98%,-10%,x,x,-11%,-14%,x
CC(=O)c1ccc(S(=O)(=O)N2CCC(c3nnc(SCCN4CCCC4)n3C)CC2)cc1,x,-1%,-22%,-11%[46.1 µM],x,-15%,3%,x
COc1cc(C2CC(=O)Oc3c2c(=O)n(C)c2ccccc32)cc(OC)c1OC (configuration not stated),x,1%,-11%,u,x,8%,0%,-9%
O=C(CC(C(=O)N1CCc2ccccc21)n1ccnc1)N1CCc2ccccc2C1 (configuration not stated),0%,-40%,-2%,20%,0.4%,1%,-17%,25%[14.3 µM]
CC[N+]12CCC(CC1)C(=C(c1ccccc1)c1ccccc1)C2,17%,3%,-24%,-7%,3.1%,-8%,-1%,16%
CCc1ccc(OCc2ccc(C(=O)NCc3ccccn3)o2)cc1,10%,-33%,36%[activator],u,1.6%,-9%,-13%,4%
CCOC(=O)c1cc(-c2ccccc2)n(CCCC(=O)Nc2cccc(Cl)c2C)c1C,14%,x,-14%,x,-2.1%,x,x,u
Cc1ccc(S(=O)(=O)N(C)C)cc1NC(=O)COC(=O)C1CCCC1,x,x,-13%,0%[46.1 µM],x,6%,2%,2%
O=C(NCc1ccccn1)c1ccc(OC2CCN(Cc3ccc(CO)o3)CC2)cc1,x,-9%,-15%,-9%,x,-2%,0%,18%
CC(=O)c1c(C)[nH]c(C(=O)NCCN2CCC(C)CC2)c1C,-16%,-2%,-15%,-9%,4.9%,-9%,7%,1%
NS(=O)(=O)c1cc(C(=O)OCC(=O)c2ccc3c(c2)OCCO3)ccc1Cl,x,9%,55%[activator],x,x,-6%,0%,x
CC(NC(=O)/C(=C/c1cccc([N+](=O)[O-])c1)NC(=O)c1ccco1)C(=O)O (configuration not stated),-5%,4%,-21%,-18%,-2.5%,-1%,21%,16%
COc1ccc(O)c(/C=N/NC(=O)c2c(C)nnn2-c2nonc2N)c1,x,x,-20%,u,x,-2%,-3%,-19%
Cc1cc(NC(=O)c2c(-c3c(F)cccc3Cl)noc2C)no1,x,1%,-13%,x,x,11%,1%,x
O=C(Nc1ccccn1)c1csc2c1CCCC2,x,-57%,25%,u,x,u,-5%,u
C=CCn1c(SCC)nc2sc3c(c2c1=O)CCc1ccccc1-3,-24%,18%,-11%,-10%,-0.5%,-4%,-4%,0%
Cc1ccc(NC(=O)c2ccc(S(=O)(=O)N3CCCCCC3)cc2)nc1,x,x,u,u,x,17%,-1%,-8%
CCOC(=O)c1ccc(-n2c(CCC(=O)O)ccc2-c2ccccc2)cc1O,u,x,-13%,9%[46.1 µM],-20%,x,x,3%[46.1 µM]
CC1(C(=O)NC2CCCCC2)Cc2ccccc2C(=O)N1Cc1ccc(Cl)cc1 (configuration not stated),-1%,x,25%,u,-0.9%,x,x,x
CCCn1c(N)c(N(CCOC)C(=O)c2ccc(F)cc2F)c(=O)[nH]c1=O,x,7%,27%,11%[46.1 µM],x,-16%,-2%,21%[46.1 µM]
CSc1cccc(NC(=O)CCNC(=O)c2ccco2)c1,x,-1%,-3%,2%[46.1 µM],x,10%,0%,1%
Fc1ccc(Cn2nnnc2CN2CCN(C3CCCCC3)CC2)cc1,-5%,3%,-10%,-5%,3.5%,2%,-4%,-6%
CC1CCc2c(nc3ncnn3c2N2CCN(c3ccccc3F)CC2)C1 (configuration not stated),-4%,-15%,-26%,-1%[46.1 µM],-2.2%,15%,1%,-23%
CC1CCN(C(=O)c2cccc(NC(=O)c3cccs3)c2)CC1,x,-12%,11%,-5%[46.1 µM],x,14%,-1%,x

# Just MARV entry inh, Lassa entry inh and StopGo reporter, for 2 of the compounds above:
SMILES	MARV entry inh	Lassa entry inh	StopGo reporter
Cc1ccc(-n2cc(C(=O)O)c(=O)cc2C)c(C)c1	u	5%[46.1 µM]	-5%
CCOC(=O)c1cc(-c2ccccc2)n(CCCC(=O)Nc2cccc(Cl)c2C)c1C	x	u	-14%

# Shown bar-delimited: 6 of the compounds above
compound | Cruzain noTriton | NS1 function inh | StopGo reporter | MARV entry inh | Cruzain inh Det | RE007 growth inh | SARS PLpro yeast | Lassa entry inh
CC1CCc2c(nc3ncnn3c2N2CCN(c3ccccc3F)CC2)C1 (configuration not stated) | -4% | -15% | -26% | -1%[46.1 µM] | -2.2% | 15% | 1% | -23%
CC1(C(=O)NC2CCCCC2)Cc2ccccc2C(=O)N1Cc1ccc(Cl)cc1 (configuration not stated) | -1% | x | 25% | u | -0.9% | x | x | x
CCCn1c(N)c(N(CCOC)C(=O)c2ccc(F)cc2F)c(=O)[nH]c1=O | x | 7% | 27% | 11%[46.1 µM] | x | -16% | -2% | 21%[46.1 µM]
O=C(Nc1ccccn1)c1csc2c1CCCC2 | x | -57% | 25% | u | x | u | -5% | u
CC[N+]12CCC(CC1)C(=C(c1ccccc1)c1ccccc1)C2 | 17% | 3% | -24% | -7% | 3.1% | -8% | -1% | 16%
Cc1ccc(S(=O)(=O)N(C)C)cc1NC(=O)COC(=O)C1CCCC1 | x | x | -13% | 0%[46.1 µM] | x | 6% | 2% | 2%
